# Sfp inh: blocks B. subtilis Sfp PPTase activity. Potency, µM, for the others: max response, negative = inhibition, usual class: inhibitors. Biochemical Sfp PPTase activity, qHTS. 310,000 compounds, 3.5% hits. Q9F4F7; active = well fitted inhibition curve with a large enough effect; inconclusive = small, poorly fitted or top-dose-only effect, or another doubt; inactive = no such curve, though single readings can be large or run the other way;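 also: the enzyme is Sfp with the accession as filed and its product quenches rhodamine fluorescence; potency is read from the fitted curve at half-maximal effect; 0% = enzyme reaction without inhibitor and -100% = no enzyme wells; top concentration of the series not given in the record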
#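 Compounds were incubated with enzyme (final 15 nM) for 15 min at room temperature before substrate addition started the reaction. Fluorescence at 525 nm excitation, 598 nm emission was recorded immediately and after 30 minutes.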
# D2 agonist: agonists of human D2 dopamine receptor (beta-arrestin); P14416; DiscoveRx PathHunter D2 beta-arrestin, luminescence, 90 min; 100% = 57 uM dopamine signal; activation, % (no concentration beside the values); 360,000 compounds, 0.084% hits; AID 624465; in the data active = activation above about 40%; inconclusive = about 15% to 40%; inactive = below about 15%; also: compound concentration not given in the record; the text of the record calls up to 30% inactive
#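 DiscoveRx PathHunter D2 beta-arrestin cells (2,100/well) attached overnight, then compound-stimulated 90 min at 37 C in HBSS/10 mM HEPES/0.1% Tween-20 buffer; beta-galactosidase complementation read by luminescence after 1 h at ambient temperature. Dopamine 57 uM final (EC100) as control.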
# Six1-Eya2 inh: inhibitors of human Six1/Eya2 interaction. AlphaScreen GST-Six1/His-Eya2 binding, biochemical; stronger effect = lower value; control for the full effect not named in the record. activity change, % (test concentration not listed). 360,000 compounds, 0.56% hits; in the data active = activity change below about -65%; inconclusive = about -30% to -65%; inactive = above about -30%; also: % is scaled to controls: 0 for no effect and ±100 for the full control effect
#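 AlphaScreen with GST-Six1 and His-Eya2 (5X mix: 250 nM and 500 nM), glutathione donor and nickel acceptor beads; buffer 50 mM Tris pH 8.0, 300 mM NaCl, 1 mM TCEP; 1 h at 37 C in the dark.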
# TRPV1 potentiator: potentiators of human vanilloid receptor 1 (TRPV1). AID 540277. potentiation, % at 8.33 µM. TRPV1-expressing cells, Fluo-8 calcium influx, capsaicin EC20 potentiation; host cell line not named in the record; control for the full effect not named in the record. 320,000 compounds, 0.02% hits. Q8NER1; active means potentiation above 80%; inconclusive means 30% to 80%; inactive means below 30%; also: 0% is about no effect
# Target sequence (Q8NER1 whole entry, looked up): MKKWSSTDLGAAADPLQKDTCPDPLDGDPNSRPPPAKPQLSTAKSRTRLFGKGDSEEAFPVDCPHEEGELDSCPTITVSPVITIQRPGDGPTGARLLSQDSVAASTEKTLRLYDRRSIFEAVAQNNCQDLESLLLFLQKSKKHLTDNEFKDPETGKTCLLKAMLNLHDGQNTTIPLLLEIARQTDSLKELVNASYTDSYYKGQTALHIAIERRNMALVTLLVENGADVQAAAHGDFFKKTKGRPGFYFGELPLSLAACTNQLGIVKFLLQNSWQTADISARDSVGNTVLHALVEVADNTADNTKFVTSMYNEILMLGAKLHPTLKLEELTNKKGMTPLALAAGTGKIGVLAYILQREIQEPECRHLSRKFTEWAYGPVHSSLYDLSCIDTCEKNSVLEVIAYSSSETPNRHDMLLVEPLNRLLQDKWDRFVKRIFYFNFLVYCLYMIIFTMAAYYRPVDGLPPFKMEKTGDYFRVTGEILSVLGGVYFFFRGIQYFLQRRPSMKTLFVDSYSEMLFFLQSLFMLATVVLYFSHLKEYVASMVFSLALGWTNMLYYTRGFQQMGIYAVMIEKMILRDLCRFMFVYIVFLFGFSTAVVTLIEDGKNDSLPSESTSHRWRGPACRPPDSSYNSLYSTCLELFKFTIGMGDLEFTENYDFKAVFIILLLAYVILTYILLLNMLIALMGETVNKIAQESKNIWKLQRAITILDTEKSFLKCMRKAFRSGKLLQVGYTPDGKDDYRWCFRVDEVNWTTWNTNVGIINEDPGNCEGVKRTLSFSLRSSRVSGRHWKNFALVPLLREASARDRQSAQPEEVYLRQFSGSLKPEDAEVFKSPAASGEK
#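 Cells expressing TRPV1 were dye-loaded with Fluo-8 and read kinetically: 10 s baseline, 3 min after compound (agonist portion), then 2 min after EC20 capsaicin (allosteric enhancer portion). Calcium-bound dye fluorescence at 480/520 nm.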
# PINK1 modulator: PINK1 expression modulation | PINK1 immunofluorescence, high-content cytometry, 24 h | Potency, µM (highest dose often 76.6 µM), inactives show at the top dose activation (PINK1 increase), hits mostly activators | 410,000 compounds, 0.2% hits | AID 624263; active = well fitted activation curve with a large enough effect; inconclusive = small, poorly fitted or top-dose-only effect; inactive = flat fitted curve, though single readings scatter; cell line not stated here;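 also: potency is read from the fitted curve at half-maximal effect; % of control where 0% means no effect; nearly all actives have a fitted effect of over 65% in size; a mitochondrial uncoupler was the plate control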
#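 Measures PINK1 amount and localization on or inside mitochondria by immunofluorescence. Stable cells get compounds at 5 concentrations for 24 hours before fixation and staining; CCCP controls included.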
# CtBP-E1A inh: blocks the CtBP interaction with E1A; 340,000 compounds, 0.49% hits; AID 651724; activity change, % (no concentration beside the values); AlphaScreen GST-E1A/His-CtBP binding, 1536-well; stronger effect = lower value; control for the full effect not named in the record; in the data active means activity change below about -65%; inconclusive means about -30% to -65%; inactive means above about -30%; also: % is scaled to controls: 0 for no effect and ±100 for the full control effect
#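 GST-E1A and His-tagged CtBP (125 nM each as 5X stock) were preincubated with pin-transferred compound for 2 h at 37 °C in the dark, then glutathione donor and nickel acceptor beads were added for 1 h before AlphaScreen reading.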
# D2 potentiator: human D2 receptor positive allosteric modulation | P14416 | DiscoveRx D2 beta-arrestin cells, luminescence, 90 min; 100% = 57 uM dopamine signal | potentiation, % (concentration not given with the values) | 360,000 compounds, 0.23% hits | AID 624464; active = potentiation of 50% or more; inconclusive = 30% to 50%; inactive = 30% or less;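 also: tested on top of an EC20 dose of dopamine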
#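 D2 cells co-treated with compound plus 50 nM dopamine (EC20) for 90 min at 37 deg C to detect potentiation. Beta-arrestin recruitment was read as enzyme-fragment luminescence after 1 h at ambient temperature. Full response was set by 57 uM dopamine.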
# * = called active by the depositor; u = inconclusive; x = not tested or not shown; & = joins results of further samples; [ ] = dose if it differs, or a comment.
no.	SMILES	Sfp inh	D2 agonist	Six1-Eya2 inh	TRPV1 potentiator
1	O=C1Nc2cc(C(=O)NCCCN3CCOCC3)ccc2S/C1=C/c1cccc(Cl)c1	u	-2.5	-11	1
2	O=C(c1cc2ccccc2o1)N1CCN(Cc2ccccc2)CC1	-10%&9%	1.9	-3	-8
3	CC(C)c1ccccc1NC(=O)CNCCc1ccc(C(F)(F)F)cc1	79µM*	-4.9	6	-20
4	CN(C)c1ccc(CN(CC2CCCO2)C(=O)c2cc3ccccc3o2)cc1 (centres undefined)	x	-2.1	u	-14
5	COCCCn1c(C(=O)N2CC(C)OC(C)C2)cc2c(=O)n3cccc(C)c3nc21 (centres undefined)	12%	-8.5	8	-20
6	CC1(C(=O)NS(=O)(=O)c2cccc(C#N)c2)CCN1C(=O)c1ccc(C2CCCCC2)cc1 (centres undefined)	x	13	-6	x
7	O=C(CC1C(=O)NCCN1Cc1ccccc1C(F)(F)F)NCCN1CCOCC1 (centres undefined)	-3%	-1.5	-5	-5
8	COc1ccc(NC(=O)N/C=C/c2ccccc2)cc1	28%	3.2	1	-9

no.	PINK1 modulator	CtBP-E1A inh	D2 potentiator
1	3.3%	x	-11
2	0.1%	2	-13
3	13%	x	-22
4	-0.6%	-14	-5
5	0.3%	10	-1
6	-0.4%	2	9
7	-2.0%	4	-5
8	1.8%	0	-7

# Remaining list, next part:
no.	SMILES	Sfp inh	D2 agonist	Six1-Eya2 inh	TRPV1 potentiator
9	C/C(=N\NC(=O)c1cc(-c2ccc(Cl)s2)[nH]n1)c1ccncc1	5%	-3.1	2	-9
10	CCCCOc1ccc(CN(C)c2ncnc(N)n2)cc1	10%	-1.1	-2	-7
11	O=C(CSc1nc2ccccc2[nH]1)Nc1ccc(F)cc1	0%	1.1	9	2
12	COc1ccc(N2C(=O)CCC(C(=O)N3CCC(C(N)=O)CC3)C2c2ccc(F)cc2)cc1 (centres undefined)	16%	-4.8	1	-1
13	CCOc1ccc(NC(=O)CCC(=O)NNC(=O)NC2CCCCC2)cc1	6%	-3.6	-9	-4
14	Cc1nnc(SCC(=O)Nc2cccc(S(=O)(=O)N(C)c3ccccc3)c2)s1	19%	1.2	-3	-4
15	Cc1c(C(=O)NCc2cccnc2)sc2nc(-c3ccccc3)cn12	-2%	-3.5	-9	14
16	Cc1ccc2oc(C(=O)NCc3ccccc3)cc(=O)c2c1	3%	-1.0	8	-9

no.	PINK1 modulator	CtBP-E1A inh	D2 potentiator
9	1.4%	-12	-10
10	30%[38.3 µM]	-1	-3
11	8.3%	22	-5
12	1.4%	2	-7
13	0.7%	22	-19
14	0.1%	-4	4
15	0.0%	-12	-12
16	3.5%	2	-3

# Other compounds follow.
no.	SMILES	Sfp inh	D2 agonist	Six1-Eya2 inh	TRPV1 potentiator
17	COc1ccc(/C=C/C(=O)O/N=C(\N)c2ccccn2)cc1OC	x	15	-9	x
18	O=C(Nc1c[nH]c(=O)[nH]c1=O)c1ccc2c(c1)C(=O)N(c1cccc([N+](=O)[O-])c1)C2=O	-10%	-1.8	3	14
19	C[C@@H]1CN([C@H](C)CO)C(=O)c2cc(NC(=O)Nc3ccc(F)cc3)ccc2O[C@@H](C)CCCCO[C@H]1CN(C)Cc1ccc(C(=O)O)cc1	x	3.2	-11	x
20	Cc1sc2nc(SCC(=O)c3cc(C)n(CC4CCCO4)c3C)n(C(C)C)c(=O)c2c1C (centres undefined)	-13%	-2.4	0	-6
21	CC(OC(=O)c1ccc(S(=O)(=O)N2CCOCC2)cc1)c1ccccc1 (centres undefined)	x	2.5	0	-23
22	O=C(Nc1ccccc1)c1ccco1	20%	-3.6	4	2
23	CN(CC(=O)Nc1cccc(F)c1)C(=O)CN1C(=O)NC2(CCCCC2)C1=O	x	-5.5	3	16
24	O=C(CCCN1C(=O)/C(=C/c2ccco2)SC1=S)Nc1ccccc1	32µM*	6.5	-7	-2

no.	PINK1 modulator	CtBP-E1A inh	D2 potentiator
17	-0.4%	-73*	19
18	-0.8%	3	-4
19	3.5%	-4	7
20	7.7%	-2	11
21	-0.2%	1	9
22	1.5%	1	-5
23	-0.1%	-3	-28
24	9.4%	-10	u

# Carrying on.
no.	SMILES	Sfp inh	D2 agonist	Six1-Eya2 inh	TRPV1 potentiator
25	Cc1ccc(S(=O)(=O)N2CCOCC2)cc1C(=O)Nc1c(C)n(C)n(-c2ccccc2)c1=O	6%	-2.1	6	-1
26	COc1ccc([N+](=O)[O-])cc1NC(=O)CC(C)c1ccccc1 (centres undefined)	13%	-1.6	1	-9
27	N#Cc1c(/N=C/c2cc(Br)cs2)sc2c1CCC2	x	9.4	-18	x
28	O=C(Nc1ccsc1C(=O)O)c1ccc(Cl)cc1	11%	-0.3	u	5
29	COCCn1c(CN2CCN(c3ccc(OC)cc3)CC2)nc2c1c(=O)n(C)c(=O)n2C	24%	0.0	8	7
30	N#Cc1c(NC(=O)CCC(=O)O)sc2c1CCCC2	0%	-0.1	4	5
31	CCCC(=O)NC(Nc1cc(C(F)(F)F)ccc1Cl)C(Cl)(Cl)Cl (centres undefined)	11%	-0.9	6	-2
32	CC1CN(C(=O)Cn2cnc3c2c(=O)n(C)c(=O)n3C)CC(C)O1 (centres undefined)	15%	-0.5	0	3

no.	PINK1 modulator	CtBP-E1A inh	D2 potentiator
25	11%[38.3 µM]	4	-11
26	-1.2%	8	-27
27	0.1%	-15	8
28	-0.2%	-3	0
29	x	4	4
30	-1.4%	-9	-7
31	u	16	-13
32	1.0%	5	u

# Carrying on:
no.	SMILES	Sfp inh	D2 agonist	Six1-Eya2 inh	TRPV1 potentiator
33	COc1ccc(CNC(=O)CSc2nnnn2Cc2ccccc2)cc1	13%	-3.0	5	-1
34	COc1ccc(OC)c(Nc2nc(-c3cccs3)cs2)c1	-11%	-0.7	-20	2
35	COC(=O)CCCC1=CC2=C(c3ccccc3)C(=O)C(C)(OC(=O)C3CCCC3)C(=O)C2=CN1Cc1ccc2c(c1)OCO2 (centres undefined)	-6%&-15%	-0.7	u	10
36	O=C(Nc1ccccc1)c1ccccc1OCc1cccc([N+](=O)[O-])c1	14%	-3.0	-6	2
37	O=C(O)CCC(=O)N1CCN(c2nc3ccccc3s2)CC1	10%	-1.5	-4	5
38	COc1cc(/C=C/C(=O)N2CCOCC2)ccc1OCc1ccccc1	4%	0.1	0	-11
39	CCOC(=O)c1c(-c2ccccc2)csc1NC(=O)CCN1C(=O)c2ccccc2C1=O	17%	-0.5	0	16
40	Cc1cc2oc3ccc(NCCCn4ccnc4)cc3c(=O)c2cc1C	x	1.5	-4	x

no.	PINK1 modulator	CtBP-E1A inh	D2 potentiator
33	0.9%	8	-6
34	x	8	-38
35	3.7%	x	-8
36	-1.4%	-9	0
37	-2.5%	3	-3
38	1.7%	11	-13
39	-0.6%	7	-10
40	8.6%	-8	-7

# Next structures follow:
no.	SMILES	Sfp inh	D2 agonist	Six1-Eya2 inh	TRPV1 potentiator
41	CC(=O)c1c(C)[nH]c(C(=O)OCC(=O)N2CCN(S(=O)(=O)c3ccc(C)cc3C)CC2)c1C	8%	0.5	2	5
42	CC(=O)OC(C(=O)NCc1ccc2c(c1)OCO2)c1ccccc1Cl (centres undefined)	-8%	-0.5	2	x
43	Cc1ccccc1N1C(=O)c2cccc3c(N(C)CCO)ccc(c23)C1=O	2%	-4.1	2	-5
44	Cc1ccc(S(=O)(=O)N(C)C[C@H]2OCc3cnnn3CCCC(=O)N([C@@H](C)CO)C[C@H]2C)cc1	x	-1.7	9	x
45	CSc1nsc(SCC(=O)Nc2nncs2)n1	-14%	2.1	-5	18
46	CN(C)CCN(C(=O)C1CCCCC1)c1nc2cc3c(cc2s1)OCCO3	x	-3.1	-27	x
47	Cc1ccc(S(=O)(=O)Nc2ccccc2C(=O)N2CCOCC2)cc1	4%	-2.7	-15	4
48	CCOC(=O)c1c(N)sc(=S)c2c1CCC2	32µM*	-4.2	u	-1

no.	PINK1 modulator	CtBP-E1A inh	D2 potentiator
41	2.6%	4	-14
42	0.9%	4	-4
43	x	-8	-12
44	-0.6%	-3	-1
45	1.2%	-2	6
46	11%	0	-25
47	1.5%	-1	-8
48	3.7%	-28	-27

# Further structures
no.	SMILES	Sfp inh	D2 agonist	Six1-Eya2 inh	TRPV1 potentiator
49	Fc1cccc(Cl)c1Cn1nnc(-c2ccc(N3CCOCC3)cc2)n1	0%	-1.7	-2	13
50	CCOc1ccc2[nH]c(=O)c(CN(Cc3nnnn3CCc3ccccc3)CC3CCCO3)cc2c1 (centres undefined)	7%	-2.7	1	-6
51	COc1ccc(N/C(=N\c2nc(C)cc(C)n2)NC(=O)C(C)C)cc1OC	17%	-0.6	4	19
52	CC1CCN(S(=O)(=O)c2ccc(Br)s2)CC1	12%	0.4	14	4
53	CC(C)(C)OC(=O)C[C@@H]1C/C=C\C[C@H](CC(=O)N(CCO)Cc2ccccc2)C(=O)NC[C@H](c2ccccc2)OC1=O	x	-13	2	x
54	CCC(C(=O)NCCC1=CCCCC1)n1nc(C)c2c(C)n(-c3ccccc3)nc2c1=O (centres undefined)	11%	-2.1	4	-2
55	COc1cc(/C=N/NC(=O)COc2ccc([N+](=O)[O-])cc2)ccc1OCC(=O)N1CCOCC1	13%	2.0	-12	4
56	COc1ccc(C(=O)O/N=C(\N)c2ccccn2)c(OC)c1	17%	8.3	-12	4
57	c1ccc(CNc2nc(-c3cccs3)nc3ccccc23)cc1	-15%	1.1	5	2
58	C=C1C(=O)C2=CC1CCC(=O)C1(C)CCC(OC(C)=O)C(C)(C)C1CC2O (centres undefined)	x	-6.2	4	x
59	CCCN(CCC)CCNC(=O)c1cc2c(=O)n(C)c3ccccc3c2n1C	12%	-7.9	-2	1

no.	PINK1 modulator	CtBP-E1A inh	D2 potentiator
49	-0.3%	2	2
50	-1.5%	-10	0
51	-0.9%	9	-2
52	11%[38.3 µM]	-16	1
53	0.7%	6	-9
54	-0.9%	6	-18
55	0.1%	-5	-4
56	5.4%	-12	17
57	2.4%	3	-6
58	-1.4%	3	-36
59	1.6%	-9	-10

# Entries listed so far shown as hits in Sfp inh:
nr | compound | Sfp inh | D2 agonist | Six1-Eya2 inh | PINK1 modulator | CtBP-E1A inh | D2 potentiator
3 | CC(C)c1ccccc1NC(=O)CNCCc1ccc(C(F)(F)F)cc1 | 79µM* | -4.9 | 6 | 13% | x | -22
24 | O=C(CCCN1C(=O)/C(=C/c2ccco2)SC1=S)Nc1ccccc1 | 32µM* | 6.5 | -7 | 9.4% | -10 | u
48 | CCOC(=O)c1c(N)sc(=S)c2c1CCC2 | 32µM* | -4.2 | u | 3.7% | -28 | -27

# Assay outcomes deposited in PubChem BioAssay by National Center for Advancing Translational Sciences (NCATS).

# No enrichment for hits; 3.7% or so of the library scored in one or more.
